LASV entry inh = blocks Lassa virus binding to or entry into cells | Lassa virus pseudotype entry inhibition, cell reporter; control for the full effect not named in the record | Potency, µM (doses to about 37.9 µM), without a hit: at the highest dose activity change, negative = inhibition, hits mostly inhibitors | actives 1.2% (n = 300,000) | AID 540256; active means well fitted inhibition curve with a large enough effect; inconclusive means small, poorly fitted or top-dose-only effect, or effect the other way; inactive means flat fitted curve, though single readings scatter; tested in HEK293 cells; also: % is scaled to controls: 0 for no effect and ±100 for the full control effect; nearly all actives have a fitted effect of over 50% in size; luciferase read-out
Cruzain inh Det = cruzain (T. cruzi) inhibition with detergent; actives 0.43% (n = 200,000); purified cruzain, Z-FR-AMC fluorescence, 0.01% Triton; AID 1478; Potency, µM, inactives show max response, negative = inhibition, most hits filed as inhibitors; P25779; active = well fitted curve in the direction sought with a large enough effect; inconclusive = small, poorly fitted or top-dose-only effect, or another doubt; inactive = no such curve, though single readings can be large; an effect the other way counts as inactive or inconclusive;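 also: plate controls were neutral wells for no effect and buffer without enzyme for full effect; nearly all actives have a fitted effect of over 40% in size; top concentration of the series not given in the record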
Target sequence (P25779 123-467 limits assumed): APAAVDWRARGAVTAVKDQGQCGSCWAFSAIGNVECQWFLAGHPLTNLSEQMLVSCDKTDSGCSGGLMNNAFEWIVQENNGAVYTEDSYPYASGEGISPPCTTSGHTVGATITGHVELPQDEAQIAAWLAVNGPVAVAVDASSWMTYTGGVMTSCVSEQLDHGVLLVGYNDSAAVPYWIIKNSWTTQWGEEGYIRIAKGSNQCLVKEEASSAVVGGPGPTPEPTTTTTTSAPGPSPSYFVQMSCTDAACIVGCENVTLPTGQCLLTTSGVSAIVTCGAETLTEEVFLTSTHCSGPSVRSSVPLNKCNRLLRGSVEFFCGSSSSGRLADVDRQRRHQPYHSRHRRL
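Read-out: AMC fluorescence (360 nm excitation, 450 nm emission), four reads over 2 min, first-to-third difference used. Conditions: cruzain 1.5 nM, Z-FR-AMC 2 uM, pH 5.5 acetate, 5 mM DTT, 0.01% Triton X-100.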
2A StopGo = lowers the luciferase signal of an FMDV 2A StopGo reporter; Potency, µM (series often up to 57.9 µM), for inactives: at the highest dose signal change, negative = less light; actives 1.2% (n = 410,000); AID 1159524; human cells with a luciferase reporter of 2A StopGo recoding; control for the full effect not named in the record; active = well fitted falling curve with a large enough effect; inconclusive = small, poorly fitted or top-dose-only effect; inactive = no such curve, though single readings can be large or run the other way; tested in HEK293T cells; also: % is scaled to controls: 0 for no effect and ±100 for the full control effect; nearly all actives have a fitted effect of over 45% in size; luciferase light after 4 h
NS1 inh = blocks influenza NS1 protein function; actives 0.4% (n = 270,000); Potency, µM (series often up to 46.1 µM), for inactives: at the top dose activity, positive = more growth; S. cerevisiae slowed by influenza A NS1, growth recovery by OD600; also: actives are rising curves; nearly all actives have a fitted effect of over 50% in size
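Compounds were scored for reversing the slow growth caused by influenza A NS1 in S. cerevisiae, measured by optical density at 600 nm. Assay medium contained 2% galactose at pH 6.0; NS1-free yeast of the same strain were the positive control.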
MARV entry inh = Marburg virus entry inhibition | Potency, µM (top dose mostly 37.8 µM), for inactives: top-dose activity change, negative = inhibition, hits mostly inhibitors | Marburg virus pseudotyped entry inhibition, cell reporter; control for the full effect not named in the record; about a third of the inactives were read at about 46 µM | actives 1.8% (n = 300,000); active = well fitted inhibition curve with a large enough effect; inconclusive = small, poorly fitted or top-dose-only effect, or effect the other way; inactive = flat fitted curve, though single readings scatter; tested in HEK293 cells; about a fifth of its hits are not listed in these tables; also: % is scaled to controls: 0 for no effect and ±100 for the full control effect; luciferase read-out
RE007 growth inh = less growth of the S. pombe RE007 Vpr strain | actives 0.21% (n = 360,000) | S. pombe RE007 Vpr strain, BacTiter-Glo ATP luminescence, 24 h; control for the full effect not named in the record | Potency, µM (doses to about 92.2 µM), without a hit: top-dose activity change, negative = less growth; active = well fitted falling curve with a large enough effect; inconclusive = small, poorly fitted or top-dose-only effect; inactive = no such curve, though single readings can be large or run the other way;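 also: % is scaled to controls: 0 for no effect and ±100 for the full control effect; nearly all actives have a fitted effect of over 50% in size; the assay follows cell death caused by Vpr and the record does not say whether a fall means rescue or toxicity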
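Fission yeast strain RE007, carrying one chromosomally integrated HIV-1 vpr copy, was seeded at OD 0.01 in PMG+AL medium with 23 nL pinned compound. After 24 h at 30 °C and 99% humidity, viability was read by BacTiter-Glo luminescence.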
Cruzain noTriton = inhibitors of Trypanosoma cruzi cruzain without detergent. purified cruzain, Z-FR-AMC fluorescence, no detergent. P25779. AID 1476. Potency, µM, for the others: max response, negative = inhibition, hits mostly inhibitors. actives 2.3% (n = 200,000); active = well fitted curve in the direction sought with a large enough effect; inconclusive = small, poorly fitted or top-dose-only effect, or another doubt; inactive = no such curve, though single readings can be large; an effect the other way counts as inactive or inconclusive;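 also: plate controls were enzyme without inhibitor for no effect and buffer without enzyme for full effect; nearly all actives have a fitted effect of over 40% in size; top concentration of the series not given in the record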
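Detergent-free condition (0.00005% Triton X-100) in acetate buffer pH 5.5 with DTT. 1.5 nM enzyme and compound were pre-mixed 15 min, then 2 uM Z-FR-AMC substrate added; reaction progress from fluorescence change between first and third reads (60 s).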
SARS PLpro yeast = inhibitors of SARS-CoV papain-like protease in yeast. Potency, µM (top dose mostly 32.9 µM), inactives show top-dose activity, positive = growth rescue. S. cerevisiae expressing SARS-CoV PLpro, growth rescue; control for the full effect not named in the record. actives 0.19% (n = 330,000). AID 485353; also: 0% is about no effect; nearly all actives have a fitted effect of over 55% in size; growth read by luminescence after 48 h
* hit, by the source's call; ? = inconclusive; · = not tested or not shown; & = joins results of further samples; [ ] = another dose, or the depositor's remark. Unless noted, calls follow the shape of the dose curve; as a rule, active means well fitted rising curve with a large enough effect; inconclusive means small, poorly fitted or top-dose-only effect; inactive means no such curve, though single readings can be large or run the other way. Potency is read from the fitted curve at half-maximal effect.

SMILES	LASV entry inh	Cruzain inh Det	2A StopGo	NS1 inh	MARV entry inh	RE007 growth inh	Cruzain noTriton	SARS PLpro yeast
CN(CC(=O)Nc1ccc(F)c(F)c1F)C(=O)c1ccc2c(c1)NC(=O)CS2	-7.9%	·	0.0%	·	-10.2%	-0.1%	·	2.8%
COc1cccc(C(=O)OCC(=O)N2CCc3ccccc32)c1OC	26.4%	·	28.0%	·	?	0.6%	·	4.4%
CCSC(=O)N(CC)CC(=O)Nc1c(CC)cccc1CC	16.5%	1.8%	-5.0%	-3.7%	-9.4%	-25.1%	-0.4%	8.2%
COC(=O)[C@H](Cc1ccccc1)NC(=O)Nc1ccc(S(N)(=O)=O)cc1	-12.6%	2.6%	-26.2%	2.8%	-1.1%	5.3%	7.4%	5.8%
CCC(=O)N1CCc2cc(S(=O)(=O)N3CCN(c4cc(Cl)ccc4C)CC3)ccc21	9.8%[46.1 µM]	·	-24.5%	10.2%	13.3%[46.1 µM]	10.9%	·	-2.3%
CCOc1ccc(OCC)c(NC(=O)CN2CCN(c3cccc(C)c3)C(C)C2)c1 (stereo not given)	?	-4.7%	?	-40.9%	?	0.6%	11.4%	2.2%
CC1CC(C)(C)OC(C[N+]2(C)CCCCC2)O1 (stereo not given)	1.1%	·	9.9%	0.9%	-19.2%[46.1 µM]	26.3%	·	0.2%
CC(=O)Nc1ccc(C(=O)COC(=O)CCS(=O)(=O)c2ccccc2)cc1	7.8%[46.1 µM]	·	-2.3%	·	-13.9%	26.3%	·	1.5%
CC(=O)OC(COc1ccccc1)Cn1cnc2cc(C)c(C)cc21 (stereo not given)	11.1%[46.1 µM]	-10.1%	-28.0%&-17.5%	·	?	2.6%	?	12.8%
CCc1ccc(CNC(=O)CCc2c(C)nn(-c3ccc(N4CCCC4)nn3)c2C)cc1	8.6%[46.1 µM]	-3.4%	0.7%	·	·	·	0.0%	·
CCC(C(=O)O/N=C(\N)c1ccc(C)cc1)c1ccccc1 (stereo not given)	?	-9.0%	-0.6%	3.1%	?	-6.1%	3.5%	-14.1%
COC(=O)c1ccc(CC(=O)c2ccc(O)cc2O)o1	-25.2%	1.4%	-4.3%	-4.6%	10.7%	0.5%	-12.4%	9.4%
COc1ccc(C2CC(=O)Oc3c2c(=O)n(C)c2ccccc32)c(OC)c1OC (stereo not given)	23.5%	-2.5%	-2.1%&-5.4%	5.1%	-16.9%	1.1%	1.4%	-2.0%
COC(=O)[C@H](Cc1ccccc1)[C@@H](C)OS(N)(=O)=O	·	·	0.0%	-2.6%	·	-11.5%	·	7.0%
Cc1nc2ccc(NC(=O)C3=NN(C)C(=O)CC3)cc2s1	10.5%	·	26.1%	·	17.9%	-19.7%	·	0.0%
COc1ccccc1Nc1nn2c(=O)c3ccc(C(=O)NC4CCC(C)CC4)cc3nc2s1 (stereo not given)	19.6%[46.1 µM]	-1.5%	-15.4%	·	·	·	13.9%	·
COc1ccc(NC(=S)/N=C(\N)Nc2nc(C)c3ccc(C)cc3n2)cc1	·	·	?	?	·	4.3%	·	1.1%
CCC(=O)N(Cc1cc2ccccc2[nH]c1=O)C(C)C	-0.8%	-3.5%	-5.6%	-1.2%	13.7%	2.7%	-2.0%	2.0%
COc1ccc(C2=NS(=O)(=O)N(C)C(C(=O)NCc3cccs3)=C2)cc1OC	·	·	35.3%[activator]	1.3%	·	11.4%	·	1.8%
COc1ccccc1NC(NC(=O)c1ccccn1)C(Cl)(Cl)Cl (stereo not given)	-0.5%	-3.4%	-14.5%	-1.7%	-2.2%	3.8%	10.5%	14.4%
CCc1ccccc1NC(=O)Cn1c(=O)n(Cc2ccco2)c(=O)c2ccccc21	24.7%[46.1 µM]	-2.4%	-0.3%	·	-12.6%[46.1 µM]	·	0.2%	·
O=C1C2C3C=CC(C3)C2C(=O)N1c1ccc2ccccc2n1 (stereo not given)	11.8%	2.5%	-20.2%	-6.9%	29.0%	-15.8%	11.1%	-1.8%
CSc1nsc2nc(=O)c(/C=C3\C(C)=Nc4ccc(C)cc43)c(N)n12	?	·	37.3%[activator]	·	?	-20.2%	·	3.5%
Cc1ccc(OCC(=O)Nc2ccc3nc(SCC(=O)N4CCOCC4)sc3c2)cc1C	6.5%[46.1 µM]	-0.3%	?	·	-21.2%[46.1 µM]	·	-0.4%	·
Cc1cc(NC(=O)CCC(=O)N2CCC3(CC2)OCCO3)no1	3.7%	5.3%	12.8%	2.0%	16.9%	6.1%	-3.9%	-0.9%

An excerpt from above, reduced to LASV entry inh:
SMILES	LASV entry inh
CSc1nsc2nc(=O)c(/C=C3\C(C)=Nc4ccc(C)cc43)c(N)n12	?
Cc1ccc(OCC(=O)Nc2ccc3nc(SCC(=O)N4CCOCC4)sc3c2)cc1C	6.5%[46.1 µM]

New compounds follow
SMILES	LASV entry inh	Cruzain inh Det	2A StopGo	NS1 inh	MARV entry inh	RE007 growth inh	Cruzain noTriton	SARS PLpro yeast
CCc1c(C)nc2c(-c3ccccc3)c(C)nn2c1Nc1ccc(NC(C)=O)cc1	-18.0%[46.1 µM]	·	-18.2%	-40.4%	?	18.2%	·	-5.2%
O=C(CC(C(=O)N1CCc2ccccc21)n1ccnc1)NCC1CCCO1 (stereo not given)	13.9%	1.0%	-16.5%	?	-4.9%	-14.3%	2.9%	-3.4%
CCn1c(SCC(=O)N2CCN(c3ccccc3)CC2)nc2c([nH]c3ccccc32)c1=O	16.2%	·	-9.3%	15.9%	6.3%	12.0%	·	0.0%
COc1cccc(NC(=O)CCSc2nnc3scc(-c4ccccc4)n23)c1	0.2%	-0.7%	-19.3%	-20.1%	8.6%	-22.0%	7.0%	-2.7%
NC(=S)N/N=C/c1ccc(-c2ccc(Cl)c(Cl)c2)o1	-6.6%	0.631µM*	-16.5%	-52.5%	-5.6%	?	0.631µM*	-29.0%
C/C(=N\Nc1ccccc1)c1cc2ccccc2oc1=O	21.2%	·	19.2%	-4.5%	21.4%[46.1 µM]	-5.3%	·	-2.9%
COc1ccc(CC(=O)NCCc2ccc(S(N)(=O)=O)cc2)cc1	18.4%	1.9%	-13.1%	-0.5%	8.9%	8.1%	-1.4%	0.9%
CC(C)CCN1C(=O)c2ccc(C(=O)Nc3cccc(S(N)(=O)=O)c3)cc2C1=O	12.1%	-6.2%	28.2µM*	2.4%	7.1%	20.7%	2.7%	9.7%
CCC1Sc2ccccc2N(CC(=O)NCCC2=CCCCC2)C1=O (stereo not given)	-3.8%	-4.2%	-10.2%	-12.6%	-20.2%	4.5%	-9.8%	5.1%
CC1CCc2onc(C(=O)O)c2C1 (stereo not given)	1.9%[46.1 µM]	·	1.4%	2.2%	-13.5%[46.1 µM]	-5.9%	·	-1.3%
CCc1ccc(N2C(=O)CS(=O)(=O)C23C(=O)N(Cc2ccccc2F)c2ccccc23)cc1 (stereo not given)	-18.4%[46.1 µM]	-4.8%	-3.9%	·	·	·	3.16µM*	·
CC1=C(C(=O)Nc2ccccc2)C(c2ccccc2Cl)n2ncc(C(=O)Nc3cccc(C)c3)c2N1 (stereo not given)	-3.7%[46.1 µM]	-5.3%	-15.8%	·	·	·	20µM*	·
Cc1n[nH]c(=O)n1-c1ccc(C(C)C)cc1	-1.2%	·	-0.4%	2.6%	?	5.1%	·	0.8%
CCS(=O)(=O)c1ccccc1C(=O)N1CCN(c2nc3ccccc3s2)CC1	?	-10.7%	?	·	·	·	?	·
CN(Cc1ccc(Cl)c(Cl)c1)C(=O)c1ccccc1SCC(=O)N1CCCC1	-11.9%	·	-15.8%	·	-16.5%[46.1 µM]	0.5%	·	-1.7%
CCOc1ccc(-n2c([S-])c(C(=O)Nc3ccc(S(=O)(=O)N4CCOCC4)cc3)[n+]3cc(C(N)=O)ccc23)cc1	-5.8%	·	2.8%	3.0%	-1.9%[46.1 µM]	1.3%	·	-0.1%
O=C(Nc1ccc2c(c1)OCO2)Oc1ccccc1	-11.7%	-1.5%	55.9%[activator]	-12.3%	2.8%	-13.0%	-14.9%	·
C=CCn1c(NC(=O)c2ccc(Br)o2)c(S(=O)(=O)c2ccccc2)c2nc3ccccc3nc21	-7.2%	-3.1%	11.4%	0.4%	-18.1%	5.3%	?	2.3%
CCCNC(=O)C1CCC(Cn2c(=O)c3sccc3n(CC(=O)N(CC)CC)c2=O)CC1 (stereo not given)	2.5%[46.1 µM]	3.3%	-9.7%	·	·	·	12.1%	·
CCc1cccc(NS(=O)(=O)c2cccc3cccnc23)c1	-16.1%[46.1 µM]	·	49.1%[activator]	-8.1%	?	3.9%	·	2.2%
CC(=O)Nc1ccc(S(=O)(=O)NCc2nc(-c3ccccc3)no2)cc1	?	·	15.4%	-3.7%	2.8%[46.1 µM]	-1.5%	·	0.4%
CC(=O)c1ccc(OC(C)C)c(CSC(=N)N)c1	·	·	0.0%	5.9%	·	-6.5%	·	-0.5%
Cc1cccc(C(C)(C)C)c1OCCN1CCCC1	-0.3%	-1.1%	-10.9%	-7.4%	?	8.7%	1.2%	-3.2%
COc1ccc(C(C)=O)cc1COC(=O)CNC(=O)c1ccc(F)cc1	20.1%	-7.9%	10.1%	-1.7%	?	-16.9%	-6.5%	-11.2%
CC/C(=N\N1CCN(C)CC1)c1c(O)[nH]c(=O)[nH]c1=O	3.9%	3.2%	-6.7%	2.5%	5.9%	-2.5%	-3.1%	6.8%
O=C(C(Cc1ccccc1)NS(=O)(=O)c1cccc2cccnc12)N1CCc2ccccc21 (stereo not given)	·	1.4%	-11.7%	-2.7%	·	-2.3%	0.2%	-1.6%
Cc1ccc(CNC(=O)c2c(O)nc3ccccn3c2=O)cc1	·	-0.4%	-9.3%	·	?	·	12.0%	·
CCOc1ccc(Nc2oc(-c3ccco3)nc2C#N)cc1	7.9%	-5.4%	24.3%	-15.3%	7.0%	7.6%	-10.2%	-10.3%
COc1cc(C(=O)NCCc2cc3c(OC)ccc(OC)c3[nH]c2=O)cc(OC)c1OC	-5.5%	·	-20.0%	·	?	4.4%	·	-0.2%
